# MLL AF4-AF9 inh = MLL-AF4/AF9 protein interaction inhibition | P42568 | AlphaScreen, biotin-AF4 peptide binding to FLAG-AF9 | inhibition, % at 10 µM | 0.47% of 350,000 active;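 active = every replicate reaching a set inhibition limit, whatever the replicate mean, cut at about 25% in these data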;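 also: 0% = plate neutral control median and 100% = total signal loss; the record names both 10 and 1 µM as test concentration; the first replicate is given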
# Target sequence (P42568 whole entry, looked up): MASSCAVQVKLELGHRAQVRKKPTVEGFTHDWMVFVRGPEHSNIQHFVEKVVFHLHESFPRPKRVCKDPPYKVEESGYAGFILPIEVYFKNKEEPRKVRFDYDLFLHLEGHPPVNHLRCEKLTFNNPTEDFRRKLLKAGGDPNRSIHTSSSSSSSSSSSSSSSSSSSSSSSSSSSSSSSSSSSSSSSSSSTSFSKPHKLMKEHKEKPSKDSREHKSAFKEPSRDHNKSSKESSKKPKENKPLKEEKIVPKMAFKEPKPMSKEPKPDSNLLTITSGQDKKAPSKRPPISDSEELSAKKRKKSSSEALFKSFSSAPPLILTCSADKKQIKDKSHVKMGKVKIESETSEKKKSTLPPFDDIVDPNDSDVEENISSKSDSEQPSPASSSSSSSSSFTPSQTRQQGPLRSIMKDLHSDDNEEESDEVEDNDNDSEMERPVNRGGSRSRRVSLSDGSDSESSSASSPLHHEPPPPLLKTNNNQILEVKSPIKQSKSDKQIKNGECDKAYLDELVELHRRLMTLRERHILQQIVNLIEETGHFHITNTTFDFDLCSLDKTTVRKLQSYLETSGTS
# Ecoli rRNA inh = selective bacterial rRNA inhibition in E. coli | E. coli WT GFP vs humanized-ribosome RFP mutants, fluorescence, 24 h; stronger effect = lower value; DMSO median 0, no signal -100 | GFP signal change (wild-type ribosome), % (concentration not given with the values) | AID 720706 | 1.6% of 350,000 active;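 active = significant combined selectivity score with lowered wild-type GFP, culture density cut under 30%, mutant RFP and density less affected; inactive = any of these conditions unmet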; also: one replicate is shown; some compounds called inactive have numbers as strong as hits
# Ecoli rRNA inh OD600 = recorded beside Ecoli rRNA inh, whose call it bears; OD600 change, %; measured here: OD600 growth;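 optical density of the mix in the first replicate; 0 = DMSO median and -100 = no signal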
# Ecoli rRNA inh RFP = recorded beside Ecoli rRNA inh, whose call it bears; RFP signal change, %; measured here: RFP humanized mutant strains;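 first replicate; 0 = DMSO median and -100 = no signal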
# An asterisk follows results filed as active. An excerpt; rates above refer to the full screens.
compound	MLL AF4-AF9 inh	Ecoli rRNA inh	Ecoli rRNA inh OD600	Ecoli rRNA inh RFP
COCC(=O)N1[C@@H](C#N)[C@@H](c2ccccc2-c2ccccc2F)[C@@H]1CO	-2.5	2.1	15.9	0.3
COc1ccccc1S(=O)(=O)N(C)C[C@H]1Oc2cc(C#CCC3CCCC3)ccc2S(=O)(=O)N([C@@H](C)CO)C[C@@H]1C	1.5	4.2	2.0	-0.8
O=C(C[C@H]1C=C[C@H](NC(=O)c2cnccn2)[C@@H](CO)O1)NCc1ccccc1F	-0.9	2.5	-0.7	-1.0
C[C@H](O)C#Cc1cnc2c(c1)C(=O)N([C@H](C)CO)C[C@@H](C)[C@@H](CN(C)Cc1cccc(F)c1)O2	-2.6	2.7	5.2	2.4
COCC(=O)Nc1ccc2c(c1)C(=O)N(C)[C@@H]1CC[C@@H](CC(=O)NCC(F)(F)F)O[C@@H]1CO2	-0.1	2.4	3.7	-1.7
Cc1ccc(S(=O)(=O)Nc2ccc3c(c2)C(=O)N([C@H](C)CO)C[C@@H](C)[C@H](CN(C)C(=O)Nc2ccc(F)cc2)O3)cc1	-3.1	1.0	0.9	0.4
C[C@H]1CN([C@@H](C)CO)C(=O)Cc2cc(NC(=O)Cc3cn(C)c4ccccc34)ccc2O[C@H]1CN(C)C(=O)Nc1ccc(F)cc1	-5.3	0.5	-2.1	-2.3
COc1cccc(-c2cnc3c(c2)C(=O)N([C@@H](C)CO)C[C@H](C)[C@H](CN(C)Cc2cccnc2)O3)c1	-1.3	-1.3	-5.0	-1.8
C[C@H](CO)N1C[C@H](C)[C@H](CN(C)C(=O)C2CCCCC2)OCCCC[C@H](C)Oc2ccc(NS(=O)(=O)c3cn(C)cn3)cc2C1=O	-0.3	2.7	6.5	-1.2
COc1ccc(NC(=O)Nc2ccc3c(c2)[C@@H]2C[C@@H](CC(=O)N4CCN(C)CC4)O[C@H](CO)[C@@H]2O3)cc1	2.4	7.1	4.1	-0.4
O=C(NCC[C@@H]1CC[C@H](NS(=O)(=O)c2cccc(F)c2)[C@@H](CO)O1)Nc1cc(F)ccc1F	-6.3	-8.1	2.6	-4.2
Cc1ccc(S(=O)(=O)N(C)C[C@H]2Oc3ccc(NC(=O)Nc4ccc5c(c4)OCO5)cc3CC(=O)N([C@@H](C)CO)C[C@@H]2C)cc1	1.1	2.0	4.9	-2.3
O=c1[nH]c2cc(O)ccc2c2ccccc12	4.5	-8.5	-17.7	-4.2
CO[C@@H]1CN(C)C(=O)c2cc(NC(C)=O)ccc2OC[C@H](C)N(C(=O)CC2CC2)C[C@H]1C	-2.3	0.7	-1.7	-0.7
C[C@@H]1CN([C@@H](C)CO)C(=O)c2cc(NC(=O)CCC(F)(F)F)ccc2O[C@@H](C)CCCCO[C@H]1CN(C)C(=O)c1ccccc1	-3.4	1.4	7.8	-1.0

# Complete entries as entered above. Order of values: MLL AF4-AF9 inh, Ecoli rRNA inh, Ecoli rRNA inh OD600, Ecoli rRNA inh RFP
# COCC(=O)Nc1ccc2c(c1)C(=O)N(C)[C@@H]1CC[C@@H](CC(=O)NCC(F)(F)F)O[C@@H]1CO2 in the list: -0.1, 2.4, 3.7, -1.7
# C[C@@H]1CN([C@@H](C)CO)C(=O)c2cc(NC(=O)CCC(F)(F)F)ccc2O[C@@H](C)CCCCO[C@H]1CN(C)C(=O)c1ccccc1 in the list: -3.4, 1.4, 7.8, -1.0
# Cc1ccc(S(=O)(=O)Nc2ccc3c(c2)C(=O)N([C@H](C)CO)C[C@@H](C)[C@H](CN(C)C(=O)Nc2ccc(F)cc2)O3)cc1 in the list: -3.1, 1.0, 0.9, 0.4
# O=C(C[C@H]1C=C[C@H](NC(=O)c2cnccn2)[C@@H](CO)O1)NCc1ccccc1F in the list: -0.9, 2.5, -0.7, -1.0
# O=C(NCC[C@@H]1CC[C@H](NS(=O)(=O)c2cccc(F)c2)[C@@H](CO)O1)Nc1cc(F)ccc1F in the list: -6.3, -8.1, 2.6, -4.2

# Carrying on:
compound	MLL AF4-AF9 inh	Ecoli rRNA inh	Ecoli rRNA inh OD600	Ecoli rRNA inh RFP
CCC(=O)N1[C@@H](CO)[C@@H](c2ccccc2)C12CN(C(=O)c1cnccn1)C2	-4.7	-2.0	-9.4	1.4
CCCNC(=O)N(C)C[C@H]1Oc2cc(C#C[C@H](C)O)ccc2S(=O)(=O)N([C@H](C)CO)C[C@H]1C	-1.8	6.7	8.8	0.2
CCc1nc2ccc(C(=O)Nc3ccc(C(=O)N(C)C)cc3)cn2c1N(C)CCCc1ccccc1	-4.8	-3.2	2.0	5.7
CO[C@H]1CN(C)C(=O)c2ccc(NC(=O)CC(F)(F)F)cc2OC[C@@H](C)N(C(C)=O)C[C@@H]1C	-1.3	-1.9	3.8	2.6
COc1ccc(NC(=O)N(C)C[C@@H]2Oc3ccc(NC(=O)CCCN(C)C)cc3C(=O)N([C@@H](C)CO)C[C@H]2C)cc1	0.3	1.5	13.5	-2.5
Cc1ccc(S(=O)(=O)N(C)C[C@H]2OCCCC[C@H](C)Oc3ccc(NC(=O)Nc4c(C)noc4C)cc3C(=O)N([C@@H](C)CO)C[C@H]2C)cc1	1.0	-4.5	-2.9	3.3
CC1(C(=O)Nc2cnc3ccccc3c2)CCN1Cc1ccccc1OC(F)F (configuration not stated)	-2.8	-47.5	-58.8	-10.0
CN1C(=O)c2cc(NC(=O)c3ccc(F)cc3)ccc2OC[C@H]2O[C@@H](CC(=O)NCC3CC3)CC[C@H]21	-0.2	-4.4	-5.7	1.9
C[C@H](NC(=O)C[C@H]1CC[C@H](NS(=O)(=O)c2cccc(F)c2)[C@@H](CO)O1)c1ccccc1	6.7	2.9	12.3	-0.9
C[C@H]1CN([C@@H](C)CO)C(=O)c2cc(C#CC3CCCCC3)cnc2O[C@H]1CN(C)C(=O)NC1CCCC1	-1.9	-12.9	-49.6	17.8
O=C(C[C@@H]1CC[C@@H]2[C@H](COC[C@H](O)CN2C(=O)c2ccncc2)O1)NC1Cc2ccccc2C1	-2.0	2.2	5.1	-1.8
Cc1ccc(S(=O)(=O)Nc2cccc3c2O[C@@H](CN(C)C(=O)NC(C)C)[C@H](C)CN([C@H](C)CO)C3=O)cc1	1.9	0.7	4.4	-1.8
CN(C)CC(=O)N1[C@@H]2Cn3c(ccc(-c4cccnc4)c3=O)[C@H]1[C@@H](C(=O)NC1CCCC1)[C@@H]2CO	-2.5	1.6	1.0	-7.1
CN(C)CC(=O)Nc1ccc2c(c1)[C@H]1C[C@H](CC(=O)NCc3ccc(-c4ccccc4)cc3)O[C@H](CO)[C@H]1O2	5.1	-8.8	-6.6	10.5
CCCC(=O)Nc1ccc2c(c1)C(=O)N(C)[C@@H]1CC[C@H](CC(=O)NCc3ccccc3)O[C@H]1CO2	-1.1	2.3	-2.2	-0.8
CC(C)CC#Cc1ccc2c(c1)O[C@H](CN(C)Cc1cccc(F)c1)[C@H](C)CN([C@@H](C)CO)S2(=O)=O	0.4	-6.4	-3.1	-1.5
O=C(C[C@@H]1CC[C@H]2[C@@H](COC[C@H](O)CN2S(=O)(=O)c2ccccc2)O1)NCc1ccc(-c2ccccc2)cc1	14.4	-5.1	-18.8	2.8
C[C@@H]1CN([C@@H](C)CO)C(=O)c2cccc(NS(C)(=O)=O)c2O[C@H]1CN(C)S(=O)(=O)c1cn(C)cn1	-14.2	4.4	11.7	-1.9
O=C(NCC1CCOCC1)c1ccc(-c2ccc(F)c(F)c2)c2ccoc12	0.2	-18.1	-51.9	-6.2
COc1ccc(CN(C)C[C@@H]2OCCCC[C@@H](C)Oc3ccc(NC(=O)Nc4c(C)noc4C)cc3C(=O)N([C@H](C)CO)C[C@@H]2C)cc1	-2.6	3.1	11.5	-1.4
C[C@H](CO)N1C[C@H](C)[C@H](CN(C)C(=O)Nc2cccc3ccccc23)Oc2ccc(NC(=O)Nc3cccc4ccccc34)cc2C1=O	-2.1	0.0	13.1	-0.6
Cc1ccccc1S(=O)(=O)N1CC[C@@H]2[C@H](CO)Nc3ccc(-c4ccccc4F)cc3[C@@H]21	-2.9	0.6	-5.7	-0.6
OC(c1ccc(F)c(F)c1)c1nc(-c2csc3ccccc23)cs1 (configuration not stated)	-1.4	-60.3	-75.2	-19.2
COCC(=O)Nc1ccc2c(c1)C(=O)N(C)C[C@@H](OC)[C@@H](C)CN(C(=O)c1ccccc1F)[C@H](C)CO2	0.1	-1.9	-3.8	-2.8
OC[C@@H]1CN(Cc2cccc(C(F)(F)F)c2)C[C@H](n2cnc3c(NCc4ccncc4)ncnc32)O1	-1.8	-10.7	-7.6	5.9
COC(=O)C1=C(C)N(C)C(=NCc2ccc3c(c2)OCO3)NC1c1ccccc1 (configuration not stated)	-3.4	13.2	14.7	1.4
COc1cccc(-c2cnc3c(c2)C(=O)N([C@@H](C)CO)C[C@@H](C)[C@@H](CN(C)C(=O)CN(C)C)O3)c1	-14.0	0.1	3.3	-1.4
C[C@H](CO)N1C[C@H](C)[C@@H](CN(C)Cc2cccc3c2OCCCO3)OCc2ccccc2-c2ccccc2C1=O	0.8	-0.8	1.1	-1.3
CO[C@H]1CN(C)C(=O)c2ccc(NC(=O)Nc3ccccc3)cc2OC[C@@H](C)N(C(=O)Nc2c(C)noc2C)C[C@@H]1C	1.3	1.5	2.1	0.2
C[C@@H]1CN([C@@H](C)CO)C(=O)c2cc(NS(=O)(=O)c3ccc(F)cc3)ccc2O[C@H]1CN(C)C(=O)Nc1ccc(C(F)(F)F)cc1	-2.2	-8.6	-23.1	0.4

# New compounds follow
compound | MLL AF4-AF9 inh | Ecoli rRNA inh | Ecoli rRNA inh OD600 | Ecoli rRNA inh RFP
C[C@@H]1CCCCO[C@H](CN(C)C(=O)c2ccccc2)[C@H](C)CN([C@H](C)CO)C(=O)c2cc(NC(=O)c3ccncc3)ccc2O1 | -1.3 | -4.1 | -9.1 | 0.8
Cc1noc(C)c1NC(=O)NCC[C@@H]1CC[C@H](NC(=O)c2ccncc2)[C@@H](CO)O1 | 3.2 | 1.2 | -0.2 | 3.5
CCOc1ccc(-c2cc(C(=O)NCc3ccccc3)[nH]n2)c(C)c1 | -3.0 | 6.4 | 9.4 | -1.1
O=C(c1ccncc1)N1CC[C@@H]2[C@@H](CO)Nc3ccc(C4=CCCCC4)cc3[C@@H]21 | -1.7 | 9.2 | 12.4 | -6.9
CCCC#Cc1ccc([C@H]2[C@H](CO)N3CCCCN(C(=O)c4ccc5c(c4)OCO5)C[C@@H]23)cc1 | 6.7 | -56.2 | -74.5 | -4.9
C[C@H](CO)N1C[C@H](C)[C@H](CN(C)C(=O)Nc2ccc3c(c2)OCO3)Oc2c(NS(=O)(=O)c3cn(C)cn3)cccc2C1=O | -5.2 | 3.6 | 9.7 | -1.4
COCC(=O)N(C)C[C@@H]1Oc2ncc(C#Cc3ccc(OC)cc3)cc2C(=O)N([C@H](C)CO)C[C@H]1C | -0.2 | -2.7 | 0.6 | -2.2
COC(=O)C1=C(C)N(C)C(=NCc2cccc(C(F)(F)F)c2)NC1c1cccc(Cl)c1 (configuration not stated) | 7.4 | -55.2 | -81.5 | -16.9
COC(=O)C1=C(C)N(C)C(=NCC2CC2)NC1c1cccc(C(F)(F)F)c1 (configuration not stated) | 0.8 | 6.9 | 3.7 | 3.5
O=S(=O)(N[C@@H]1CC[C@H](CCn2cc(-c3ccccc3F)nn2)O[C@H]1CO)c1ccc(F)cc1 | -28.2 | -6.6 | -5.5 | -2.4
COC(=O)C[C@@H]1C[C@@H]2c3cc(N)ccc3O[C@@H]2[C@@H](CO)O1 | 5.6 | 2.9 | 9.7 | 0.4
C[C@@H]1CN([C@@H](C)CO)C(=O)Cc2cc(NC(=O)Nc3ccc4c(c3)OCO4)ccc2O[C@@H]1CN(C)Cc1ccc(C(=O)Nc2ccccc2N)cc1 | -2.3 | -8.3 | -9.1 | 0.2
CN(Cc1ccccc1)C(=O)[C@@H]1CCCN1C(=O)[C@@H]1CCCN1C(=O)c1cccc(Cl)c1 | -4.7 | 3.8 | 8.7 | 5.3
CC(C)c1ccc(NC(=O)C2Cc3c(-c4ccco4)ccnc3O2)cc1 (configuration not stated) | -0.7 | -5.6 | -31.1 | 1.8
C[C@H]1CCCCO[C@@H](CN(C)C(=O)Nc2ccccc2)[C@@H](C)CN([C@@H](C)CO)C(=O)c2cc(NC(=O)Cc3ccccc3)ccc2O1 | 0.6 | 1.3 | 1.0 | 0.2
C[C@H]1CN([C@@H](C)CO)C(=O)c2cccc(NS(=O)(=O)c3ccc(F)cc3)c2O[C@@H]1CN(C)C(=O)Nc1ccc(F)cc1 | -3.0 | -0.5 | -6.4 | -2.6
CCC(=O)N1C[C@H]2[C@@H](c3ccccc31)[C@@H](CO)N2Cc1ccccc1Cl | 2.4 | -12.1 | -10.0 | 8.0
NCC[C@@H]1CC[C@@H](NC(=O)NC2CCCCC2)[C@H](CO)O1 | 0.7 | 2.6 | 9.3 | -2.5
N#Cc1ccc(-c2nc3c(Cl)cc(C(F)(F)F)cn3c2Cc2ccsc2)cc1 | -2.2 | 4.8 | 2.8 | 6.4
CC1(c2nc3ccccc3[nH]2)CCC(=O)N1Cc1cccs1 (configuration not stated) | 1.0 | 10.4 | 13.8 | -1.7
C[C@H](CO)N1C[C@H](C)[C@@H](CN(C)C(=O)Nc2cccc3ccccc23)Oc2ccc(NC(=O)CCC(F)(F)F)cc2C1=O | -2.3 | 1.4 | 1.8 | -0.2

# Source: PubChem BioAssay (Broad Institute)
